Assay outcomes from PubChem.
T cruzi inh: inhibitors of intracellular T. cruzi growth, primary screen, luminescence, NIH3T3 host cells. T. cruzi beta-gal in NIH3T3, 90 h. inhibition, % (concentration not given with the values). 300,000 compounds, 1.4% hits;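 active = mean inhibition across valid replicates above about 55%, limit read from the data; inconclusive = mean below that limit but half or more replicates reach it; inactive = mean below it, under half of replicates reach it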;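 also: signal also drops with host cell toxicity which is not excluded here; 0% = plate median of DMSO wells and 100% = zero luminescence signal; higher percent means less beta-gal luminescence so fewer parasites; stock transfer was 50 nL into about 50 µL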
Beta apoptosis: inhibitors of cytokine-induced beta cell apoptosis, primary screen, luminescence; protection from apoptosis, % (no concentration beside the values); AID 435005, 2010; 300,000 compounds, 0.8% hits; INS-1E cytokine-induced death, ATP luminescence, 48 h; percent of positive-control rescue, neutral wells zero;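 active = all replicates at 75% or more, or half of them and the mean; inconclusive = half reach 75% but not the mean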;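 also: 0% = cytokine-treated negative control wells and 100% = positive control rescue; higher means more ATP so stronger rescue from cytokine killing; wells of about 40 µL received 100 nL stock; the first replicate is given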
Calb FLC: C. albicans growth inhibition with fluconazole, primary screen, CaCi-2 strain, Alamar Blue fluorescence. C. albicans CaCi-2 (fluconazole-resistant clinical isolate) + fluconazole, 48 h. growth inhibition, % (no concentration beside the values). 300,000 compounds, 0.57% hits. AID 1979, 2009;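 active = most replicates above 75%; inconclusive = exactly half above 75%; inactive = most below 75%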;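 also: all wells also contain fluconazole at 8 µg/ml as a sub-toxic cotreatment; 0% = median of DMSO wells and 100% = median of geldanamycin control wells; wells of about 8 µL received 7.5 nL stock; the first replicate is given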
Ecoli rRNA inh: reduced GFP signal of wild-type E. coli, primary screen, bacterial rRNA inhibitor project, GFP/RFP fluorescence, OD600, single point. GFP signal change (wild-type ribosome), % (concentration not given with the values). 350,000 compounds, 1.6% hits. E. coli WT GFP vs humanized-ribosome RFP mutants, 24 h; stronger effect = lower value; DMSO median 0, no signal -100;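 active = significant combined selectivity score with lowered wild-type GFP, culture density cut under 30%, mutant RFP and density less affected; inactive = any of these conditions unmet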; also: one replicate is shown; some compounds called inactive have numbers as strong as hits
Bfl-1 A1 inh: caspase 3/7 activation in MEF A1-2A-BIM cells, primary screen, A1 inhibitor project, cell-based, luminescence, HTS; 330,000 compounds, 0.066% hits; Caspase-Glo 3/7 luminescence, 3 h; percent of clofoctol response, vehicle zero; caspase activation, % (no concentration beside the values);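 active = over half of replicate activation scores above 10%, or exactly half above 10 with the replicate mean above 10; inconclusive = replicate mean below 10 yet half the replicates above 10; inactive = over half of replicates below 10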;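 also: wells of about 30 µL received 50 nL stock; many hits fall short of the cut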
Vif TR-FRET: inhibitors of Vif binding to APOBEC3G peptide, primary screen, biochemical, TR-FRET, GST-Vif 1-94, biotin-A3G peptide, dose response retest (AID 1117319); TR-FRET GST-Vif / biotin-A3G peptide binding; higher % means a stronger effect; test concentration not given here; strong numbers were not always called active; inhibition, %, or IC50 in µM where a hit was titrated; 260,000 compounds, 0.57% hits;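 active = above the screen mean plus three standard deviations and confirmed in dose response; inconclusive = results disagree or hit not tested in dose response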;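 also: Vif residues 1-94 fused to GST binding biotinylated APOBEC3G peptide 110-148; 0% = full assay without inhibitor and 100% = GST in place of GST-Vif; retest series ran down from 100 µM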
RanGTP-Impb inh: inhibitors of RanGTP-importin-beta interaction, primary screen, biochemical, FRET, CFP-Ran, YFP-importin-beta, homogeneous | Ran GTPase (GTP-bound) - importin-beta complex | cell-free CFP-Ran/YFP-importin-beta FRET ratio | inhibition, % (concentration not given with the values) | 300,000 compounds, 1.1% hits;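 active = most replicates above 15%; inconclusive = exactly half above 15%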;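 also: 0% = DMSO wells and 100% = Ran loaded with GDP instead of GTP; wells of about 40 µL received 100 nL stock; the first replicate is given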
AF4-AF9 inh: inhibitors of AF4 peptide binding to AF9, primary screen, biochemical, AlphaScreen, biotin-AF4 peptide, FLAG-AF9, single point; Protein AF-9 (Homo sapiens), P42568; inhibition, % at 10 µM; 350,000 compounds, 0.47% hits;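 active = every replicate reaching a set inhibition limit, whatever the replicate mean, cut at about 25% in these data; inconclusive = mean inhibition reaches that limit but some replicates miss it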;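 also: 0% = plate neutral control median and 100% = total signal loss; the record names both 10 and 1 µM as test concentration; the first replicate is given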
Target sequence (P42568 whole entry, looked up): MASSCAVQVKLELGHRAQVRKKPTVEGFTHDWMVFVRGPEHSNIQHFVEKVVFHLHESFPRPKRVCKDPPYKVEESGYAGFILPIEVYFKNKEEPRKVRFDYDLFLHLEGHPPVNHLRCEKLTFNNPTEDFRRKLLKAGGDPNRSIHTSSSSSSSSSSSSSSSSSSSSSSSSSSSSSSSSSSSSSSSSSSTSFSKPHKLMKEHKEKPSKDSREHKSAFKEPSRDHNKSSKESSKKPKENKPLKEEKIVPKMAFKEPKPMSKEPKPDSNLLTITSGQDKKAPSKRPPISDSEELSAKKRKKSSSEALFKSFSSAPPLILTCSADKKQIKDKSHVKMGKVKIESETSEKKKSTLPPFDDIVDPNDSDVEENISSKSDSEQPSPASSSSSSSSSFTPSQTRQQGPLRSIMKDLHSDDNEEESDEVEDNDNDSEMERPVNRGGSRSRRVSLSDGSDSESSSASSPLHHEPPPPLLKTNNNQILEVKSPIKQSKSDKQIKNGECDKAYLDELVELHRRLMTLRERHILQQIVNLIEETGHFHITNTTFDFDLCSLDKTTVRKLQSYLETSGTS
Ecoli rRNA inh OD600: further read-out of Ecoli rRNA inh, marked with its call; OD600 change, %; measured here: OD600 growth;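 optical density of the mix in the first replicate; 0 = DMSO median and -100 = no signal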
Ecoli rRNA inh RFP: recorded beside Ecoli rRNA inh, whose call it bears; RFP signal change, %; measured here: RFP humanized mutant strains;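 first replicate; 0 = DMSO median and -100 = no signal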
* = called active by the depositor; ? = inconclusive; . = not tested or not shown; & = joins results of further samples.

SMILES	T cruzi inh	Beta apoptosis	Calb FLC	Ecoli rRNA inh	Ecoli rRNA inh OD600	Ecoli rRNA inh RFP	Bfl-1 A1 inh	Vif TR-FRET	RanGTP-Impb inh	AF4-AF9 inh
COCCN(Cc1cc2cc(C)ccc2nc1Cl)C(=O)Nc1ccccc1C	11	.	4	12	11	-0.8	1.3	8%	?	-2.8
O=C(CSc1nnc(COc2cccc3cccnc23)o1)N1CCc2ccccc21	27	10	0	.	.	.	0.4	0%	1.8	.
O=C(C(=O)N1CCN(c2ccccc2)CC1)c1c[nH]c2ccccc12	8	4	-17	-18	-13	1.4	-0.5	.	2.0	3.0
CC1(C(=O)NCc2ccc(Cl)c(Cl)c2)Oc2cccnc2NC1=O (stereo not given)	9	-3	-4	-1	5	1.7	0.7	-2%	1.5	-0.2
COc1cc(NC2CCCCC2O)c2nc(-c3ccc(Cl)cc3)ccc2c1 (stereo not given)	47	80*	-4	4	2	-11	1.5	11%	-2.8	3.6
Cc1cc(C)c(OCCCCNCc2ccccc2)c(Cl)c1	45	3	-29	.	.	.	-0.2	8%	2.0	.
COc1ccc(OC)c(N(CC(=O)N2CCCC2)S(=O)(=O)c2ccc(C)cc2)c1	-1	-6	5	1	2	-0.1	0.4	2%	3.7	2.3
CN1C[C@@H]2C(c3ccc(Cl)nc3)C3(c4cccnc4)CC2(C3)[C@H]1c1ccccc1 (stereo not given in full)	-10	5	9	1	-3	-4.8	-0.1	.	?	6.2
C=CCn1c(-c2ccc(N)cc2)nc2ccccc21	4	1	1	-5	-12	-0.9	-0.5	0%	0.7	5.3
CCc1ccc(NS(=O)(=O)c2ccc3[nH]c(=O)[nH]c3c2)cc1	-1	-6	42	2	-2	2.0	1.3	.	3.7	-1.4
Cc1cc(N2CCOCC2)nc2cc(O)ccc12	-6	-4	2	2	3	-3.8	1.2	30%	11	0.2
Cc1c(Cl)cccc1NC(=O)Cn1cccc1	2	4	-1	.	.	.	-0.1	0%	-2.1	.
Cc1ccsc1/C=N/NC(=O)CNC(=O)c1cccc([N+](=O)[O-])c1C	-7	-18	-1	16	19	-5.1	1.7	28%	9.3	-0.4
CC(C)CCNCC(O)CON=C1c2ccccc2-c2ccccc21 (stereo not given)	50	29	?	-60	-69	-16	0.7	-8%	-0.9	27*
C=CCC1NS(=O)(=O)OC(COC)C1C (stereo not given)	-12	-7	-1	14	20	2.1	-0.3	.	?	-0.4
Cc1cc2c(c(SCC(=O)NCCc3ccccc3)n1)C(=O)OC2	8	0	-10	.	.	.	1.4	1%	2.3	.
COc1cc(C(CC(=O)Nc2ccc(Cl)cn2)N2Cc3ccccc3C2=O)cc(OC)c1OC (stereo not given)	-3	5	-3	4	13	-0.4	0.2	4%	1.4	-2.3
O=C(O)c1ccccc1C(=O)c1ccc2c(c1)CCC2	-5	-3	-13	-2	-2	-1.1	0.2	4%	-0.2	-4.3
O=C(NCC1CCCO1)c1cccc(C(=O)NCC2CCCO2)c1 (stereo not given)	-11	-9	-6	15	9	3.2	0.9	0%	7.2	-2.6
CC(C)CNC(=O)CSc1nc2nn(-c3ccccc3)c(=O)c-2c2n1CCCCC2	13	0	4	10	8	5.3	0.3	.	11	-0.2
CC(=O)NC(Cc1ccc(F)c(F)c1)C(=O)NC1CCN(c2nnnn2-c2ccccc2)CC1 (stereo not given)	1	2	-3	6	5	-0.7	-0.6	-9%	-0.4	-1.6
C=CC(O)(C#CCN(CC)CC)c1ccccc1 (stereo not given)	-4	-9	?	.	.	.	0.3	1%	0.0	.
Cc1c(Cc2ccccc2)sc(N)c1C(N)=O	-3	4	2	.	.	.	0.0	8%	2.2	.
Cc1ccc(NC(=O)CN(C)C(=O)CSc2nncn2C)cc1	-4	0	-2	.	.	.	1.5	4%	-5.3	.
CC(=O)OCC(=O)NCC(=O)c1c[nH]c2ccccc12	-15	6	15	.	.	.	-0.2	.	?	.
O=C(Nc1ccc(O)c(-c2nc3ccccc3o2)c1)C1(c2ccc(Br)cc2)CCCC1	1	4	-5	.	.	.	0.6	16%	11	.
CNC(=O)CCn1nc(-c2ccccc2)c2ccccc2c1=O	-6	-3	9	.	.	.	-0.5	22%	1.7	.
Cc1c(N(C(=O)Cc2cccs2)C2(C(=O)NC3CCCC3)CCCCC2)c(=O)n(-c2ccccc2)n1C	11	3	-4	13	12	1.7	-0.5	18%	2.5	-2.5
Oc1ccc(C2C(c3ccccc3)=NN=C(c3ccc(Cl)cc3)N2O)c(O)c1 (stereo not given)	18	5	-14	-16	-22	-10	-0.5	16%	-2.7	7.5
CCOc1ccccc1NC(=O)C1CCN(C(=O)C2CC(=O)N(c3ccc(C)cc3)C2)CC1 (stereo not given)	10	-3	1	-1	-8	-1.6	-0.7	.	-1.9	-1.2
CCCCSC1=C(C#N)C(c2ccccc2C)CC(=O)N1 (stereo not given)	-2	5	-3	2	-5	-2.7	0.6	-1%	1.3	5.3
CCCN(CCC)CCCNC(=O)CNC(=O)c1nn(-c2ccc(OC)cc2)c(=O)c2ccccc12	-5	-5	-38	9	10	3.3	1.6	?	7.4	-1.5
CC(C)c1ccc(NC(=O)C2C3C=CC4(O3)C2C(=O)N(CCCN2CCCCC2)C4C(=O)NC2CCCCC2)cc1 (stereo not given)	2	1	-4	6	-3	-0.3	-0.1	.	?	1.1
CCOC(=O)C1CCN(C(=O)c2cc(S(=O)(=O)N3CCOCC3)ccc2C)CC1	.	-5	.	4	6	0.4	-0.7	-4%	.	1.2
CC/S(CC1CC1(Cl)Cl)=N\S(=O)(=O)c1ccc(C)cc1 (stereo not given)	-16	-8	-7	.	.	.	0.0	2%	4.0	.
COc1ccc2c(O)c(-c3c(C)cc(C)cc3C)c(=O)[nH]c2c1	-15	1	5	21	12	3.1	0.3	.	0.5	-7.1
O=C(NC(=S)Nc1ccc(Br)cn1)c1cncc(Br)c1	13	-6	-18	.	.	.	0.4	0%	8.7	.
O=c1c2sccc2n(Cc2cccc(F)c2)c(=O)n1-c1ccc(F)cc1	-23	-11	-1	.	.	.	-1.1	-1%	?	.
O=C(c1ccco1)N(Cc1nc2ccccc2c(=O)[nH]1)C1CCCC1	0	-7	.	.	.	.	-0.6	-1%	5.8	.
Cc1c(Cl)c(-c2n[nH]c(=S)n2-c2ccccc2)nn1C	1	-1	23	.	.	.	-0.6	.	-0.2	.
O=c1c2ccccc2nc2n1CCC2	-5	4	18	.	.	.	0.2	1%	2.7	.
Nc1ccc(-c2nc3ncccc3o2)c(O)c1	-12	.	4	3	-1	-2.4	-2.8	-2%	11	3.6
Cc1ccccc1CN(c1ccc(C(N)=O)cc1)S(C)(=O)=O	8	-2	1	.	.	.	2.0	7%	-2.9	.
Cc1nc(-c2cccc(S(=O)(=O)N3CCOCC3)c2)cs1	-20	2	0	9	2	4.5	0.5	-17%	1.8	-3.1
Cc1ccc(-c2nnc(-c3cccc(Br)c3)o2)cc1	-6	-2	3	.	.	.	-0.3	5%	-0.9	.
COc1ccc(-c2c3c(cc(C)[n+]2[O-])oc2ccc(OC)cc23)cc1	-10	-8	-6	.	.	.	0.8	10%	4.3	.
Cc1nc2c(C(=O)NCc3ccco3)cnn2c(C)c1Cc1ccc(F)cc1Cl	74*	6	6	.	.	.	0.6	-3%	4.7	.
O=C(CCS(=O)(=O)c1ccc(Cl)cc1)NCCc1c[nH]c2ccccc12	8	-4	-7	-6	-7	1.3	-1.0	-10%	-0.3	2.9
O=C(NNc1cccc(Cl)n1)C(F)(F)F	-17	0	-32	-7	-16	-2.4	-0.9	.	?	-0.1
O=C(N/N=C/c1ccc2c(c1)OCO2)c1ccc(NC(=O)c2ccc(F)cc2)cc1	0	5	-2	-3	0	-3.8	0.1	.	1.1	6.2

Continued:
SMILES	T cruzi inh	Beta apoptosis	Calb FLC	Ecoli rRNA inh	Ecoli rRNA inh OD600	Ecoli rRNA inh RFP	Bfl-1 A1 inh	Vif TR-FRET	RanGTP-Impb inh	AF4-AF9 inh
COC(=O)NCC(c1cccnc1)N1CCN(c2ccccc2OC)CC1 (stereo not given)	23	3	-2	.	.	.	0.6	-7%	5.3	.
Cc1nc(C(=O)NCCC(C)C)sc1C1(C)CC(c2ccccc2)=NO1 (stereo not given)	0	2	2	-8	-22	2.4	0.0	?	-1.9	1.4
O=C(CSC1=Nc2ccccc2C2=NC(Cc3c[nH]c4ccccc34)C(=O)N12)NC1CCCCC1 (stereo not given)	4	-3	-4	.	.	.	-1.2	6%	4.2	.
COc1ccc(Cl)cc1S(=O)(=O)n1nnc2ccccc21	-15	-4	-15	.	.	.	0.6	-2%	-1.4	.
COCCNC(=O)CCCn1c(=O)c2ccccc2n(CC(=O)NCCC2=CCCCC2)c1=O	3	.	-5	.	.	.	.	-4%&-8%	9.8	.
Cc1nc(SCc2ccccc2C)n[nH]1	-5	1	3	.	.	.	1.7	-2%	2.7	.
CCOc1ccc(S(=O)(=O)Nc2ccc(C(=O)NNC(=O)c3ccncc3)cc2)cc1	0	-3	.	-11	-10	0.7	-0.6	-7%	2.7	-5.3
CN(C)n1cnc2ccsc2c1=O	-14	.	19	14	16	-0.9	1.0	3%	-6.9	-1.6
O=C(Cc1ccc(Cl)cc1)Nc1ccc(S(=O)(=O)Nc2ncccn2)cc1	-9	3	35	4	6	2.7	0.2	.	2.7	3.3
CN(C)/C(=N\OC(=O)c1ccccc1)c1nonc1N	-1	-9	1	.	.	.	0.1	-2%	2.6	.
O=C(CN1CCN(Cc2ccc(Cl)cc2)C1=O)NCCCN1CCOCC1	-8	-5	-6	-3	5	-1.0	0.1	25%	-1.7	-7.6
COC(=O)C(Cc1ccccc1)NC(=S)NC(=O)c1ccccc1 (stereo not given)	-8	-10	9	-18	-5	-2.9	0.0	-5%	-1.8	3.0
COc1ccc(OC)c(/C=C/C(=O)N(C)CC(=O)Nc2ccc(N3CCOCC3)cc2)c1	.	3	.	-3	-1	-1.3	-0.7	4%	.	4.2

Look-ups from the list:
Entry for COCCNC(=O)CCCn1c(=O)c2ccccc2n(CC(=O)NCCC2=CCCCC2)c1=O in Calb FLC: -5
Entry for O=c1c2ccccc2nc2n1CCC2 in Calb FLC: 18

Not all compounds are listed; the hit share may differ from the screen's.
